Screens: PubChem BioAssay, several laboratories
HSV augment: enhancers of HSV replication in host cells, fold increase, host cell viability | HSV replication augmentation in cells | maximum fold increase | 0.005% of 220,000 active;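 active means peak rise of 1.5-fold or more in the series; tested in PC3 cells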;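 further: first round at 10 µM; read as green reporter fluorescence; hits show the peak of a series up to 25 µM; 1 = signal of infected wells without compound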
GALR2 ag: GALR2 receptor agonists, primary screen, cell-based; Galanin receptor type 2 (Homo sapiens), O43603; GALR2-expressing cells, agonist activation read-out; activation, %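 (tested at 5 µM)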; 0.48% of 140,000 active;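 active means above mean plus 3 SD of all compounds, about 5% in these data, not always enough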;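 further: 0% = vehicle buffer wells and 100% = reference agonist at full effect; tested in CHO reporter cells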
Target sequence (O43603 whole entry, looked up): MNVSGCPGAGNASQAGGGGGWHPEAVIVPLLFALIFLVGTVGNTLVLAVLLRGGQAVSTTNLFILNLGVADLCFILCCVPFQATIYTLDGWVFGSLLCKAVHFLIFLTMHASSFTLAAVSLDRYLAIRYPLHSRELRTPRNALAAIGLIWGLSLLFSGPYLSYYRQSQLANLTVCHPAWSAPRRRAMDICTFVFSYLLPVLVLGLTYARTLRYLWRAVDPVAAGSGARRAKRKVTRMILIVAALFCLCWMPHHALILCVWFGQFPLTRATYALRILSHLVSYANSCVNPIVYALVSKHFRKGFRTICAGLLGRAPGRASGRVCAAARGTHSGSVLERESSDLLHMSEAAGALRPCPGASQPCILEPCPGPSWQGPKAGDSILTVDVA
Insulin prom inh: inhibitors of insulin promoter-driven GFP, primary screen, imaging, TRM-6 cells (human fetal islet line), eGFP reporter, cell count. reporter expression induced with tamoxifen. inhibition, % at 2 µM. 0.9% of 130,000 active. AID 1273, 2008;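 active means inhibition above the mean plus 3 SD, with well images judged a real hit on visual review, cut at about 60% in these data, passing the limit was not always enough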
RGS16-Gao HTS: modulators of RGS16 binding to Galphao, primary screen, biochemical, human proteins, multiplexed bead flow cytometry | bead-based flow cytometry RGS16-Galphao binding, fluorescence; actives lie on both sides | binding response (% of control), % at 10 µM | 0.38% of 220,000 active | AID 1441, 2008;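 active means below 25% or above 175%, edge rows of some plates excepted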;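 further: Galphao activated by GDP with aluminum fluoride before binding; 100% = wells without compound and 0% = beads without RGS; some results beyond the cut were filed as inactive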
Target sequence (O15492 whole entry, looked up): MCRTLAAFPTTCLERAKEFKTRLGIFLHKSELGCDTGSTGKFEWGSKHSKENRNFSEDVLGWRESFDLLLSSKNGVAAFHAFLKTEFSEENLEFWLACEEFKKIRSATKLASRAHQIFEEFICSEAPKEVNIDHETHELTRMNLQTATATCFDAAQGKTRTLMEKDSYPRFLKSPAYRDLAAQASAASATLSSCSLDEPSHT
Target sequence (P09471 whole entry, looked up): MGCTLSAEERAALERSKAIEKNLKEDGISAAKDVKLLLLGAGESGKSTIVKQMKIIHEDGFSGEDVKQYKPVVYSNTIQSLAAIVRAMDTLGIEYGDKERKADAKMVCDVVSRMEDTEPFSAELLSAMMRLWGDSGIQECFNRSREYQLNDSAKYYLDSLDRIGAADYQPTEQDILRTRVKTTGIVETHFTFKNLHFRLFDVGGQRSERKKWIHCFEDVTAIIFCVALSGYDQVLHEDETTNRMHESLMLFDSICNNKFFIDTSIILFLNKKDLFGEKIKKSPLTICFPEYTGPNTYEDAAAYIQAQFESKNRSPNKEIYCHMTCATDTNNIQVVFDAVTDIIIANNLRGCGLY
PKD1 inh: inhibitors of human PKD1 kinase, biochemical, fluorescence polarization. PKD1 kinase fluorescence polarization assay. inhibition, %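 (about 10 µM by stock and volumes)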. 0.056% of 200,000 active;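 active means inhibition of 50% or more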;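 further: controls were vehicle for no effect and a reference inhibitor for full effect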
Insulin prom inh cell count: also measured in Insulin prom inh; calls as there; normalized cell count, %; measured here: cell count, toxicity; reference of the scale not given here;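 cells exposed to compound for 48 h; stained nuclei by imaging scaled within each plate; lower means fewer cells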
HSV augment primary fold: recorded beside HSV augment, whose call it bears; fold increase; compound at 10 µM; measured here: primary screen fold increase 10 uM; tested in PC3 cells;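 GFP signal in the first replicate; 1 = infected wells without compound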
Numbers without * were called inactive; i = inactive; · = no result given; [ ] = remark or other dose.

SMILES	HSV augment	HSV augment primary fold	GALR2 ag	Insulin prom inh	Insulin prom inh cell count	RGS16-Gao HTS	PKD1 inh
Cc1cc(-c2ccccc2)[nH]c(=O)c1S(=O)(=O)c1ccc(Cl)cc1	i	0.94	-2.4	38	105	101	-13
Cc1ccc2sc(-c3ccc(NC(=O)CCN4C(=O)c5ccccc5C4=O)cc3)nc2c1	i	1	-1.5	·	·	93	6
Cc1ccc(C2=NN(C)c3nc4ccccc4n3C2)cc1	i	1	-1.9	13	110	104	-5
CC1(C)c2ccccc2N(CC(N)=O)C12C=Cc1ccccc1O2 (stereo not drawn)	i	0.98	·	·	·	104	·
CCCCNc1cc(=O)n(C)c(=O)n1C	i	0.98	-2.5	-36	125	100	-2
NC1=Nc2cccc3cccc1c23	i	1.2	·	-87	64	106	-1
COc1ccc(C(=O)/C=C/Nc2cccc(C)n2)cc1OC	i	0.98	1.4	-21	91	100	-10
Cc1cc(N2CCN(C)CC2)ccc1NC(=O)c1cccc(S(=O)(=O)N2CCc3ccccc3C2)c1	i	0.56	·	-36	128	98	-5
O=C(CNCc1ccccc1Cl)NCc1ccco1	i	0.99	·	·	·	99	2
O=C(O)CCC(=O)NNC(=O)c1ccc(-c2ccccc2)cc1	i	1	1.5	-6	138	94	3
O=C(CCC(=O)Nc1ccccc1)NNC(=O)C(c1ccccc1)c1ccccc1	i	1.2	-0.3	37	72	116	1
CC(C)OC(=O)Cn1c(=O)sc2ccccc21	i	0.9	-1.1	·	·	102	-9
COc1cc(/C=C/c2nnc3c4ccccc4ncn23)cc(OC)c1OC	i	0.84	-0.5	·	·	134	1
COc1ccc([N+](=O)[O-])cc1C1NN=C(c2cccc3ccccc23)S1 (stereo not drawn)	i	0.89	-0.8	-150	108	110	-4
CCC(C)NC(=O)c1nn(C)c(=O)c2ccccc12 (stereo not drawn)	i	0.69	·	6	169	104	-2

Sorted by the number under PKD1 inh (low to high): five of the compounds above
| mol | HSV augment primary fold | GALR2 ag | RGS16-Gao HTS | PKD1 inh |
| --- | --- | --- | --- | --- |
| CC(C)OC(=O)Cn1c(=O)sc2ccccc21 | 0.9 | -1.1 | 102 | -9 |
| Cc1cc(N2CCN(C)CC2)ccc1NC(=O)c1cccc(S(=O)(=O)N2CCc3ccccc3C2)c1 | 0.56 | · | 98 | -5 |
| CCCCNc1cc(=O)n(C)c(=O)n1C | 0.98 | -2.5 | 100 | -2 |
| COc1cc(/C=C/c2nnc3c4ccccc4ncn23)cc(OC)c1OC | 0.84 | -0.5 | 134 | 1 |
| O=C(O)CCC(=O)NNC(=O)c1ccc(-c2ccccc2)cc1 | 1 | 1.5 | 94 | 3 |

Profiles, looked up by structure. Values in the order: HSV augment, HSV augment primary fold, GALR2 ag, Insulin prom inh, Insulin prom inh cell count, RGS16-Gao HTS, PKD1 inh
`COc1ccc([N+](=O)[O-])cc1C1NN=C(c2cccc3ccccc23)S1` (stereo not drawn) as listed: i, 0.89, -0.8, -150, 108, 110, -4
`O=C(CNCc1ccccc1Cl)NCc1ccco1` as listed: i, 0.99, ·, ·, ·, 99, 2
`CC1(C)c2ccccc2N(CC(N)=O)C12C=Cc1ccccc1O2` (stereo not drawn) as listed: i, 0.98, ·, ·, ·, 104, ·
`O=C(CCC(=O)Nc1ccccc1)NNC(=O)C(c1ccccc1)c1ccccc1` as listed: i, 1.2, -0.3, 37, 72, 116, 1

(further entries)
SMILES	HSV augment	HSV augment primary fold	GALR2 ag	Insulin prom inh	Insulin prom inh cell count	RGS16-Gao HTS	PKD1 inh
Cc1ccc(-n2ncc(C(=O)O)c2C2CCN(C(=O)OC(C)(C)C)CC2)cc1	i	0.99	0.7	·	·	106	1
COc1ccccc1OCCCn1c(C)c(C#N)c2ccccc21	i	0.96	0.5	-29	113	100	-7
CCn1c2ccccc2c2cc(CNCc3ccc(OC)cc3OC)ccc21	i	0.81	·	·	·	102	13
COc1ccccc1Oc1ccc(NC(=O)c2ccccc2C)cc1	i	0.94	·	·	·	101	-9
O=c1[nH]c(Nc2ccc3c(c2)OCCO3)nnc1Cc1ccc(Cl)cc1	i	0.88	·	·	·	95	3
CCOc1cc(CNCC(O)c2ccccc2)cc(Cl)c1OC (stereo not drawn)	i	0.81	·	-5	132	102	7
CCN1CCN(CCCNC(=O)c2cn(CCOC)c(=O)c3c2c2ccccc2n3C)CC1	i	0.98	7.7	-79	30	111	-4
CCN(CC)CCN1C(=O)C(O)=C(C(=O)c2cccs2)C1c1ccc(C)o1 (stereo not drawn)	i	0.92	-1.0	-91	157	98	-2
COc1ccc(OC)c(NC(=O)CCC(=O)Nc2nnc(C(F)(F)F)s2)c1	i	0.91	-3.4	-50	181	100	-4
O=C1CN(C(=O)CSc2nc(-c3ccccc3)cs2)c2ccccc2N1	i	0.91	0.3	0	121	106	3
CC1CCCC(NC(=O)COC(=O)COc2ccc(Cl)cc2)C1C (stereo not drawn)	i	0.85	-3.5	-30	111	70	1
Cc1ccc(S(=O)(=O)/C(C#N)=C/c2c(N3CCOCC3)nc3ccccn3c2=O)cc1	·	·	-1.0	40	75	104	5
CC(NC(=O)COc1ccc(Br)cc1)C(=O)O (stereo not drawn)	i	0.84	-1.5	-24	192	100	2
COc1cccc(OC)c1C(=O)NC(=S)Nc1ccc2oc(=O)ccc2c1	i	1.1	0.5	·	·	100	-8
Cc1ccc(S(=O)(=O)NCC(=O)OCC(=O)c2cccs2)cc1	i	0.97	0.0	35	107	101	-13
CN(C)c1ccncc1C(=O)Nc1ccc(F)cc1F	i	1	·	·	·	100	·
Cc1ccc(C(=O)NNC(=O)Cc2ccccc2)cc1	i	1.1	-2.1	8	83	102	-3
FC(F)(F)c1cc(-c2ccccc2)nc(NCc2cccs2)n1	i	1	-0.7	59	114	104	-9
Cc1ccc([N+](=O)[O-])c(-c2n[nH]c(=S)n2-c2cccc(Cl)c2)c1	i	0.91	·	·	·	95	·
CCOC(=O)c1cnc(SCC(=O)N2CCN(c3ccccc3)CC2)nc1N	i	0.79	-2.6	-12	151	89	4
CC(=O)C1=C(C)NC(SCC(=O)c2ccc(Cl)cc2)=C(C#N)C1c1ccco1 (stereo not drawn)	·	·	1.0	-71	76	101	18
COc1ccccc1CC(=O)NC1CC(C)(C)NC(C)(C)C1	·	·	0.2	-38	114	100	11
Cc1cc2ccccc2n1CCNC(=O)c1ccccc1	i	1.1	0.1	-91	169	109	-7
C=CCOc1ccccc1CNc1ccc2c(c1)OCCO2	i	0.75	·	31	105	99	3
CCCN1C(=O)COc2ccc(C(=O)c3ccccc3C(=O)O)cc21	i	0.96	·	·	·	90	5
Cc1ccc(-c2cc(C(F)F)n3ncc(C(=O)Nc4c(C)nn(Cc5c(Cl)cccc5Cl)c4C)c3n2)cc1	i	0.65	-0.4	·	·	102	-5
CCc1ccccc1NC(=O)c1nnn(CC(=O)Nc2ccccc2C)c1N	·	·	0.1	-33	113	89	-1
COc1ccc(/C=C\c2onc(C)c2S(=O)(=O)N2CCC(C(=O)NCCC(C)C)CC2)cc1	i	0.98	-3.6	·	·	102	5
Cc1nn(C(=O)CN2C(=O)c3ccccc3C2=O)c(C)c1Br	i	0.81	-2.5	-36	121	101	0
N#Cc1ccsc1NC(=O)COC(=O)CCCSc1nc2ccccc2s1	i	1	-1.7	·	·	101	3
CC(=O)Nc1nonc1-c1nc2ccccc2n1N(C(C)=O)C(C)=O	i	0.92	-1.0	-16	107	67	-6
CCNC(=S)N1N=C2c3ccccc3CCC2C1c1ccc(F)cc1 (stereo not drawn)	i	0.77	·	·	·	102	·
CC(OC(=O)c1cc(Cl)ccc1[N+](=O)[O-])C(=O)NC(C)c1ccc(F)cc1 (stereo not drawn)	i	0.99	-0.2	25	159	99	-8
COc1cc([N+](=O)[O-])ccc1NC(=O)CN1CCOCC1	i	1	·	·	·	98	10
CC(C)(C)C(=O)NC(=S)NNC(=O)c1ccncc1	i	1	·	55	82	102	5
Cc1ccc(OCC(O)CN2CCN(c3ccccc3)CC2)cc1 (stereo not drawn)	i	0.98	-2.9	·	·	188	-4
O/N=C/c1cccnc1Sc1ccccc1	i	1	·	0	136	180*[activator]	0
CCOc1ccc(CN(C(=O)c2ccco2)C2CCS(=O)(=O)C2)cc1 (stereo not drawn)	i	0.85	-0.9	-24	104	97	-5
CCOC(=O)N1CCN(C(=O)COc2cc(=O)n(C)c3ccccc23)CC1	i	0.82	-3.1	1	86	92	-6
CCOC(=O)c1cnc(-c2ccccc2)nc1Oc1ccc(C)cc1	i	1.1	-0.3	14	80	109	6
COc1cccc(Nc2nc(N)nc(-c3oc4ccccc4c3C)n2)c1	i	0.73	-3.2	8	121	100	-6
CC(C)(C)c1ccc(NC(=O)COC(=O)c2ccc([N+](=O)[O-])s2)cc1	i	0.87	-0.1	24	92	129	2
Cc1sc2ncn(-c3ccccc3)c(=O)c2c1C	i	0.98	·	·	·	103	7
Cc1ccc(S(=O)(=O)NNC(=O)c2cccs2)c(C)c1	·	·	-0.7	-46	89	106	-5
O=C1CC(c2cccc(Cl)c2)CC(O)=C1C=NC1CCCC1 (stereo not drawn)	i	0.86	-0.8	-45	142	104	-8
CCc1nnc(NS(=O)(=O)c2ccc(NC(=O)COc3ccc4ccccc4c3)cc2)s1	i	1	·	-17	65	88	-7
COc1ccc2[nH]c(=O)c(CN(C(=O)c3ccncc3)C(C)C)cc2c1	i	0.84	-1.2	-35	39	102	9
Cc1[nH]c2ccccc2c1N=Nc1ccccc1F	i	1	·	·	·	101	-3
COc1ccc(-c2nn(CCC(=O)O)cc2/C=C/C(=O)O)cc1[N+](=O)[O-]	i	1.2	-0.1	14	59	79	-13
CCCCc1c(C)c2ccc(OC)c(/C(C)=N\O)c2oc1=O	·	·	-0.5	·	·	94	5
COc1ccc(Oc2coc3cc(OCC(=O)N4CCCCC4)ccc3c2=O)cc1	i	0.97	-1.3	0	89	107	-5
COc1ccc(NC(=O)CCn2nc(C)cc2C)cc1	i	0.92	-0.9	·	·	97	-15
Cc1ccc(Cl)cc1NS(=O)(=O)c1c(C)[nH]c(=O)[nH]c1=O	i	0.75	-2.4	·	·	91	-3
COc1ccc(CNCC(O)(c2ccc(Cl)cc2)c2ccc(Cl)cc2)cc1OC	i	0.78	-1.2	·	·	98	-4
Cc1ccc(CNC(=O)c2ccc(N(C)C)cc2)cc1	i	1	·	·	·	98	-2
COc1ccc(NC(=O)COC(=O)CNS(=O)(=O)c2ccc(C)cc2)c(OC)c1	i	1.1	-0.3	-7	188	108	-9
N#C/C(=C\Nc1ccc(F)c(Cl)c1)C(=O)C1CC1	i	0.94	·	·	·	105	·
NC(=O)c1c(NC(=O)Cc2cccs2)sc2c1CCC2	i	1.2	-2.5	-32	72	119	1
Cn1c(CSCc2ccccc2Cl)nnc1SCC(=O)Nc1nccs1	i	0.97	-0.1	44	88	94	-8
CCOC(=O)C1CCN(C(=O)CCS(=O)(=O)c2ccc3c(c2)CCN3C(C)=O)CC1	i	0.93	-2.4	-19	84	105	6
The list goes on:
SMILES	HSV augment	HSV augment primary fold	GALR2 ag	Insulin prom inh	Insulin prom inh cell count	RGS16-Gao HTS	PKD1 inh
O=C(Nc1ccnc(-c2ccncc2)n1)c1ccccc1Cl	i	1	·	33	69	101	-2
CC1(C)CC(N(Cc2ccco2)C(=O)Cc2ccccc2)CCO1 (stereo not drawn)	i	0.97	-4.2	50	43	106	9
Cc1ccc(NC(=O)c2snc3c(=O)[nH]cnc23)cc1C	i	0.9	-1.1	-20	87	105	8
COC(=O)C1=C(C)NC2=C(C(=O)C(C(=O)OC)C(c3ccc(OC)cc3)C2)C1c1ccccn1 (stereo not drawn)	i	0.85	0.5	·	·	109	-4
CCn1cc(CNC(=O)CCc2ccc(OC)cc2)cn1	i	1	-0.3	18	99	104	11
Cc1ccc(S(=O)(=O)N(CC(O)CN(C)C)c2ccccc2)cc1 (stereo not drawn)	i	1	-1.9	29	90	101	-4
Cn1c(SCC(=O)c2ccc3c(c2)Cc2ccccc2-3)nnc1-c1cccc(N)c1	i	0.8	-2.5	41	106	95	6
c1ccc2oc(-c3[nH]ncc3CN3CCC(N4CCSCC4)CC3)cc2c1	i	0.9	·	-4	170	107	-9
Cc1csc(NC(=O)CCc2ccc(S(=O)(=O)N3CCOCC3)cc2)n1	i	0.92	-1.0	19	118	103	11
CSc1nnc2n(C)c3c(c(=O)n12)C1(CCCC1)Cc1ccccc1-3	i	0.77	0.4	·	·	98	-9
CN1CCc2cccc3c2[C@@H]1Cc1ccc(O)c(O)c1-3	i	0.98	-0.4	-14	89	79	15
COc1cc2cc(C(c3nnnn3C3CCCCC3)N(C)C3CCCCC3)c(=O)[nH]c2cc1OC (stereo not drawn)	i	1	-0.8	·	·	105	3
Cc1cc(C)n(-c2ccc(Cl)c(C(=O)OCC(N)=O)n2)n1	i	0.93	-2.6	17	130	96	10
NCCCNC(=O)c1ccc(/C=N/O)nc1	i	0.96	·	12	108	100	-10
Cc1nc2ccccc2c2c1C(=O)NC2=O	i	1	·	·	·	98	·
